# Mtb H37Rv: Mycobacterium tuberculosis H37Rv growth inhibition, cell based, confirmatory dose response (AID 1949); M. tuberculosis H37Rv growth inhibition; most inactive calls were filed without a number and no value below 0 was filed; one-dose inhibition, % at 10 µg/mL; IC50 in µg/mL for titrated hits; 1.6% of 100,000 active;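 active = confirmed in a dose series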;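 note: bacteria grown 7 days with compound before Alamar blue readout; 0% = untreated bacteria and 100% = reference antibiotic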
# Starred values were filed as active, the others as inactive; i = inactive. Not all compounds are listed; the hit share may differ from the screen's.
SMILES,Mtb H37Rv
COc1ccccc1C(=O)Nc1ccc(N2CCN(C)CC2)cc1,1.1%
Cc1ccc(NC(=O)CSc2nnc(SCc3ccccc3)s2)cc1F,2.6%
C=CCNC(=O)c1ccccc1NC(=O)CN(c1cc(C)ccc1OC)S(=O)(=O)c1ccc(C)cc1,i
CC(C)(C)c1ccc(OCc2nnc(Sc3ccc([N+](=O)[O-])cn3)n2-c2ccccc2)cc1,3.0%
Cc1ccc(-n2nnnc2SCC(=O)N2CCOCC2)cc1C,i
CCn1c(COc2ccc(OC)cc2)nc2ccccc21,1.1%
Cc1cc(C)c(S(=O)(=O)N2CCCCC2)cc1Br,2.7%
CCOC(=O)CSc1nc2c(c(=O)n(C)c(=O)n2C)n1Cc1ccccc1Cl,i
COc1ccc(CC(=O)NC(=S)Nc2ccc(S(=O)(=O)N3CCCC3)cc2)cc1,i
COc1cccc(NC(=O)CN(c2ccc(F)cc2)S(=O)(=O)c2ccc(OC)c(OC)c2)c1,i
Cc1cc(C)c2oc(-c3ccc(C)c(NC(=S)NC(=O)c4oc5ccccc5c4C)c3)nc2c1,2.8%
CC(C)c1ccc(N2CC(C(=O)Nc3ccccc3C(F)(F)F)CC2=O)cc1 (stereo not drawn),i
CCCCNC(=O)c1ccccc1NC(=O)c1ccc(C(C)(C)C)cc1,19.5%
Nc1c(C(=O)Nc2nccs2)sc2nc3c(c(-c4ccco4)c12)CCCC3,1.6%
CCOC(=O)c1c(NC(=O)CSc2nnc(Cc3ccccc3)o2)sc(C)c1C,i
O=C(CCN1C(=O)C2C3CCC(C3)C2C1=O)Nc1cccc2ccccc12 (stereo not drawn),i
O=C(CSc1nc2ccccc2o1)Nc1ccc(Br)cn1,i
COc1cc(OC)cc(C(=O)Oc2c(S(=O)(=O)c3ccccc3)c(C)nn2-c2ccccc2)c1,8.1%
O=C1N2CCSC2=NC1(Nc1nccs1)C(F)(F)F (stereo not drawn),0.5%
CCOC(=O)c1cc(-c2ccccc2)sc1NC(=S)N1CCN(C(=O)c2ccco2)CC1,i
O=C1c2ccccc2C(=O)N1Cc1nc2ccccc2c(=O)n1-c1ccc(Br)cn1,i
COc1cccc2cc(C(=O)NC34CC5CC(CC(C5)C3)C4)c(=O)oc12,4.9%
O=C(Nc1cc(Cl)ccc1C(=O)O)c1ccc(Br)o1,i
CCC(C)NC(=O)c1ccccc1NC(=O)CN(c1ccc(I)cc1)S(C)(=O)=O (stereo not drawn),i
O=C(O)C1CCCCC1C(=O)Nc1ccc(C(=O)N2CCCCC2)c(Cl)c1 (stereo not drawn),i
C=CCNC(=S)NCc1cccnc1,i
COc1ccc(S(=O)(=O)N(CC(=O)NCc2ccncc2)c2ccccc2OC)cc1,i
Cc1ccc(Cl)cc1N1C(=O)CC(N2CCN(c3ccccc3)CC2)C1=O (stereo not drawn),0.1%
Cc1cc(C)c2c(=O)[nH]c(SCC(=O)c3cccs3)nc2n1,i
O=C(Nc1cccc([N+](=O)[O-])c1)C1C2CC3OC(=O)C1C3C2 (stereo not drawn),i
COC(=O)C1=CN(C23CC4CC(CC(C4)C2)C3)C=C(C(=O)OC)C1c1cc(OC)c(OC)c(OC)c1,18.1%
CS(=O)(=O)N(CC(=O)NCC1CCCO1)c1ccc(I)cc1 (stereo not drawn),5.9%
Cc1ccc(S(=O)(=O)N(CC(=O)N2CCN(C)CC2)Cc2ccc(Br)cc2)cc1,i
O=C1CSC2(C(=O)Nc3ccccc32)N1c1cc(Cl)cc(Cl)c1 (stereo not drawn),i
CCCc1cc(C(N)=O)c(NC(=O)c2cc(-c3ccc(C)o3)nc3ccccc23)s1,i
CCc1ccccc1N1CCN(C(=O)c2ccc(Br)cc2)CC1,16.7%
CCn1c(Cc2ccccc2)nnc1SCC(=O)Nc1cc(Cl)c(Cl)cc1Cl,i
C=CCN(CC=C)C(=S)Nc1ccc(OC)c(OC)c1,2.2%
COc1ccccc1NC(=O)CSc1ccccn1,i
O=C(COc1ccccc1F)NC1CC1,1.5%
O=C(CSc1nnc2scc(-c3ccccc3)n12)N1CCCCCC1,i
NS(=O)(=O)c1ccc(CCNC(=O)c2ccc([N+](=O)[O-])cc2)cc1,i
COc1cc(C(=O)Nc2scc(-c3ccccc3)c2C(=O)O)cc(OC)c1OC,8.2%
Cc1nnc(SCc2ccc(C(=O)c3ccccc3)cc2)[nH]c1=O,i
Fc1ccccc1-n1c(-c2ccncc2)n[nH]c1=S,i
COc1c(C)cccc1C(=O)NC(=S)Nc1ccc(S(N)(=O)=O)cc1,i
COC(=O)c1cc(-c2ccccc2)sc1NC(=S)NNC(=O)c1ccc2c(c1)OCO2,i
Cc1ccc(C)c(NC(=O)c2ccc(N(C)S(C)(=O)=O)cc2)c1,i
Cc1ccc2nc(-c3ccc(NC(=O)C4CC4)cc3)[nH]c2c1,i
COC(=O)c1ccc(NC(=O)CSc2ncnc3sc(C)c(C)c23)cc1,i
CCC(=O)N1CCN(c2ccccc2NC(=O)c2ccc(-c3ccc(Br)cc3)o2)CC1,i
Cc1onc(-c2ccccc2)c1C(=O)Nc1nc(-c2ccc(F)cc2F)cs1,i
CC(=O)Oc1cccc(NC(=O)CC2Nc3ccccc3NC2=O)c1 (stereo not drawn),i
Cc1oc(C(C)(C)C)cc1C(=O)Nc1ccc(N(C)C)cc1,i
CCOC(=O)c1cnn(-c2ccccc2)c1NC(=O)c1ccccc1,i
CCc1cccc(CC)c1NC(=O)c1c(-c2c(Cl)cccc2Cl)noc1C,7.9%
CCC(CC)C(=O)NCCN1CCN(C(=O)C(CC)CC)CC1,2.5%
Cc1onc(-c2ccccc2)c1C(=O)n1cccn1,0.1%
COc1ccc(Cl)cc1N(CC(=O)N1CCCCCC1)S(C)(=O)=O,i
CCCCCOc1ccc(NC(=O)C(=O)NCC2CCCN2CC)cc1 (stereo not drawn),0.9%
# (cont.)
SMILES,Mtb H37Rv
Cc1cc(Nc2ccc(C(=O)O)cc2)c2cccc(C)c2n1,i
Cc1cccc(-n2c(-c3ccc(Cl)cc3)n[nH]c2=S)c1,i
Cc1ccc(Cl)c2c1NC(=O)C21SCCS1,i
CCOc1ccccc1N(CC(=O)N1CCCCC1)S(=O)(=O)c1ccccc1,i
O=C(CC1(O)C(=O)N(CCc2ccccc2)c2ccc(Cl)cc21)c1ccco1 (stereo not drawn),i
Cc1ccc(-c2cc(C(=O)NC3CC3)c3ccccc3n2)c(C)c1,8.5%
O=C(CSc1nnc(-c2ccco2)o1)Nc1nc2ccccc2s1,1.2%
Cc1ccnc(SCC(=O)Nc2cccc(C(F)(F)F)c2)n1,i
Cc1cc([N+](=O)[O-])cc2c1N(C)C(=O)C2(c1c[nH]c2ccccc12)c1c[nH]c2ccccc12,49.9%
Cc1ccc(C(=O)n2cnnc2N)cc1,i
Cc1c(/C(O)=C2\C(=O)C(=O)N(Cc3cccnc3)C2c2cccnc2)cnn1-c1ccccc1 (stereo not drawn),i
CCOC(=O)c1c(-c2ccc(OC)cc2)csc1NC(=O)c1ccc(OC)cc1,i
CCc1cc(C)cc(OCCNC(=O)c2ncn[nH]2)c1,i
Cc1ccc(NC(=O)C(=O)NCCc2ccccc2)c(C)c1,i
O=C(CN(c1ccccc1)S(=O)(=O)c1ccc(F)cc1)Nc1cccnc1,i
Cc1cc(OC(=O)CN2C(=O)c3ccccc3C2=O)ccc1Cl,i
COC(=O)c1cccc(NC(=O)c2ccc(I)cc2)c1C,10.5%
N#Cc1ccc(C23CC4CC(CC(C4)C2)C3)nc1SCC(=O)NC12CC3CC(CC(C3)C1)C2,i
CNC(=S)Nc1cccc(Cl)c1C,i
Cc1cccc(NC(=O)c2nc[nH]c2C(=O)Nc2ccccc2[N+](=O)[O-])c1,6.3%
C=CCNc1cc(N2CCN(C(=O)c3cccc(Cl)c3)CC2)ccc1[N+](=O)[O-],i
Cc1cccc(C(=O)NCc2nnc(SCC(=O)c3ccccc3)n2-c2ccccc2)c1,i
COc1nnc(-c2ccc(N3CCOCC3)c(NC(=O)c3ccc([N+](=O)[O-])cc3)c2)c2ccccc12,i
Cc1ccc([N+](=O)[O-])cc1NC(=O)CN(C)S(=O)(=O)c1ccc(Br)cc1,i
Cc1cc(C)nc(/N=C(/N)Nc2cccc3ccccc23)n1,1.6%
O=S(=O)(Nc1ccc(Cl)cc1)c1cccc(F)c1,0.3%
Cc1cc(C)cc(N2C(=O)NC(=O)/C(=C\c3ccccc3Br)C2=O)c1,i
CSc1ccccc1NC(=O)CN(c1ccccc1F)S(C)(=O)=O,i
COc1cccc(C(=O)Nc2ccccc2Cl)c1OC,28.1%
CCn1c(CC(=O)Nc2cccc(OC)c2)nnc1SCC(=O)Nc1nccs1,i
O=C(CNS(=O)(=O)c1ccccc1)Nc1cc(Cl)cc(Cl)c1,i
Cc1cnc(N2C(=O)c3ccccc3C2=O)s1,i
O=C(Cc1ccccc1)NCCCCNC(=O)Cc1ccccc1,i
O=C(CNS(=O)(=O)c1ccccc1)Nc1ccc2c(c1)OCCO2,i
COc1ccc(-c2nc3ccccc3s2)cc1I,2.7%
Cc1ccc(C)c(NC(=O)CN(c2ccc(C)c(Cl)c2)S(C)(=O)=O)c1,i
C=CCc1cccc(C)c1OCCCn1ccnc1,i
O=C(NCc1cccs1)c1ccc(Br)o1,i
COc1ccc(C)cc1S(=O)(=O)N(CC(=O)Nc1cccc(C(C)=O)c1)c1ccc(F)cc1,i
CCOc1ccc(S(=O)(=O)Nc2ccc(C)c(Cl)c2)cc1,i
CCOC(=O)N1CCC(n2c(=S)[nH]c3ccccc3c2=O)CC1,4.5%
CN(C)CCNCCOc1ccc(Br)cc1Cl,47.4%
CCOC(=O)C1=C(C)NC(SCC(=O)NCc2ccccc2)=C(C#N)C1c1ccccc1Cl (stereo not drawn),i
CC(C)c1ccccc1NC(=O)Cn1cnc2scc(-c3ccc(Cl)cc3)c2c1=O,1.1%
CCCC(=O)Nc1ccc(NC(=O)c2ccc(OC(C)C)cc2)cc1,2.3%
Cc1cc(NC(=O)c2cccc(F)c2)c(C)cc1I,i
Cc1ccc(-c2nc3cc(N)ccc3o2)cc1Br,i
Cc1ccc(NC(=S)N2CCN(c3ccccn3)CC2)c(C)c1,i
COCc1cc(C)nc2sc(C(=O)NCc3ccco3)c(N)c12,0.6%
O=C(CSc1ccccc1)Nc1ncn[nH]1,i
COc1ccccc1CCNC(=O)c1cnccn1,i
O=C(CCC1CCCCC1)Nc1cccc2c1CCCC2,i
Clc1ccccc1-c1nc2ccccc2n1Cc1ccccc1,9.9%
COC(=O)COc1cc2occ(-c3csc(C)n3)c(=O)c2cc1C,i
CCCN(CCC)S(=O)(=O)c1ccc(C(=O)N2CCC(=O)c3ccccc32)cc1,i
COc1cc(Cl)c(C)cc1NC(=O)C1CCC(=O)N1S(=O)(=O)c1ccc(C)cc1 (stereo not drawn),1.8%
Cc1onc(-c2c(F)cccc2Cl)c1C(=O)Nc1cc(C(F)(F)F)ccc1F,i
Cc1cccc(C)c1NC(=O)CN(c1ccc(F)cc1)S(=O)(=O)c1ccc2c(c1)OCCO2,1.4%
COc1ccc(C(=O)Nc2ccc(N(C)C(C)=O)cc2)cc1I,i
CCOC(=O)c1c(NC(=O)COc2ccc(Cl)cc2)sc(C(=O)Nc2ccc(OC)cc2OC)c1C,0.5%
# Continuation.
SMILES,Mtb H37Rv
CCCC(=O)N(Cc1cc2cc(C)ccc2[nH]c1=O)c1ccccc1OC,0.5%
COC(=O)c1ccc(OC(=O)c2ccc(C(C)(C)C)cc2)cc1,i
Cn1nnnc1SCC(=O)Nc1ncccn1,i
CCOC(=O)C1C(=O)CC(C)(O)C(C(=O)OCC)C1c1cccc(Cl)c1 (stereo not drawn),i
O=Cc1ccc(Oc2ccc(C(F)(F)F)cc2[N+](=O)[O-])cc1,22.8%
O=S1(=O)N=C(Nc2ccc(Cl)c(C(F)(F)F)c2)c2ccccc21,i
O=C(CSc1nnc2ccccn12)N1CCc2ccccc2C1,i
CCOC(=O)c1c(NC(=O)COc2ccccc2C)sc(C(=O)NC2CCCCC2)c1C,i
CCC(=O)Nc1nnc(-c2ccncc2)s1,i
O=C(O)C1C2C=CC3(CN(c4ccc(Cl)c(F)c4)C(=O)C13)O2 (stereo not drawn),i
CNC(=O)CCc1nc(-c2ccccc2OC)no1,0.0%
CC(=O)OC(C(=O)N1c2ccccc2C(Nc2ccccc2)CC1C)c1ccccc1 (stereo not drawn),i
Cc1ccc(S(=O)(=O)Nc2ccc(S(=O)(=O)N3CCCCCC3)cc2)cc1[N+](=O)[O-],i
COC(=O)c1ccc(N2CCN(C)CC2)c(NC(=O)c2sc3cc(Cl)ccc3c2Cl)c1,2.3%
COc1cc(NC(=O)Cc2ccc(Cl)cc2)ccc1NC(=O)c1cc2ccccc2o1,i
O=C(Nc1nc(-c2ccc(S(=O)(=O)N3CCCC3)cc2)cs1)C1COc2ccccc2O1 (stereo not drawn),2.0%
COc1cccc(NC(=O)c2cc(Cl)ccc2NC(=O)c2ccco2)c1,i

# Bioassay records: PubChem, Southern Research Institute
